Biofilm kill mix – clotrimazole potentiators killing C. albicans biofilm, primary screen, 4-compound mixtures; C. albicans biofilm persisters + clotrimazole, fluorescence viability; primary screen in compound mixtures of four per well; inhibition, % at 7.6 µM; actives 0.02% (n = 120,000);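 active = inhibition above 30.3% in the primary screen of four-compound pools, then above 30% when the compound was retested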;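 note: compounds exposed to preformed 24 h biofilms for 48 h; the number belongs to the whole pool; some results filed as inactive read as strong as hits; inactives centre near 12; 0% = biofilm with clotrimazole alone and 100% = kill control; retested singly at about 60 µM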
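Test system: C. albicans CAF4-2 wild-type biofilms; buffer or medium: RPMI/MOPS medium, pH 7.0; schedule: 24 h biofilm formation, then 48 h compound exposure, 37 °C; detection: Alamar Blue fluorescence; measure: percent inhibition of biofilm viability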
The depositor's hits bear a star.

SMILES | Biofilm kill mix
CC(C)C(=O)NC(=S)Nc1ccccc1N1CCN(C(=O)c2ccc(Cl)cc2)CC1 | 21
Cc1ccc(/C=C/C(=O)Nc2nc3ccccc3[nH]2)cc1 | 15
COc1ccc(/C=C2/NC(=O)N(Cc3ccccc3F)C2=O)cc1OC | 15
O=S(=O)(NCC(c1ccco1)N1CCN(c2ccc(F)cc2)CC1)c1ccc(F)cc1 (centres undefined) | 16
C/C(CCc1ccco1)=N\NC(=O)CNc1cccc2ccccc12 | 19
O=C(CNc1ccc(F)cc1)N/N=C/C1CC=CCC1 (centres undefined) | 8
S=C1NCCOCCOCCOCCOCCNC(=S)NCCOCCOCCOCCOCCN1 | 12
CCOc1cc2[nH]c(=O)n(Cc3ccc(C(=O)NCCCN4CCC(C)CC4)cc3)c(=O)c2cc1OCC | 7
O=C(CNC(=S)NC(=O)c1ccc(Br)o1)c1ccccc1 | 1
Cc1ccccc1NC(=O)c1cccc(NC(=O)CCC(=O)O)c1 | 18
O=C(c1cc2ccccc2[nH]1)N1CCOCC1 | 5
Cc1ccc(NCC(=O)NNC2=NCCC2)c(C)c1 | 22
O=C(N/N=C/c1cccc([N+](=O)[O-])c1)c1cc(-c2ccc3c4c(cccc24)CC3)n[nH]1 | 14
CCOC(=O)C1=C(c2ccccc2)OC(N)=C(C#N)C1c1ccc(Br)s1 (centres undefined) | 19
COc1cccc(-n2c(N)c(C#N)c3ccc([N+](=O)[O-])cc3c2=O)c1 | 12
O=C(CSc1cccc[n+]1[O-])Nc1cc(S(=O)(=O)N2CCOCC2)ccc1Cl | 18
Cc1cs/c(=N\N=C\c2ccccc2)n1Cc1ccco1 | 32
Nc1ccccc1C(=O)NCc1ccc(Cl)cc1 | 13
CC1CC=C(c2ccccc2)C(=S)N1 (centres undefined) | 4
Cc1ccc(N=Cc2sccc2C)cc1C | 24
O=C(CSc1nnc(-c2cccc(Cl)c2)o1)Nc1ccc2c(c1)OCCO2 | 20
CCN(CC)CC(=O)N1c2ccccc2CCc2ccc(NC(=O)c3cc(OC)c(OC)c(OC)c3)cc21 | 14
Fc1ccccc1OCCCCn1cncn1 | 8
CN(C(=O)C(Cl)Cl)C1CC2C=CC1C2 (centres undefined) | 6
Cc1ccccc1Cn1cc(NC(=O)c2cc(-c3ccco3)on2)cn1 | 1
COc1cc(C)ccc1S(=O)(=O)n1nc(C)cc1C | 15
O=C(CNC(=O)c1ccc(S(=O)(=O)N2CCCC2)cc1)N/N=C/c1ccco1 | 23
O=C(Nc1ccc([N+](=O)[O-])cc1)Nc1ccc2[nH]c(=O)[nH]c2c1 | 11
O=C(O)c1ccc(CSc2nc3ccc(N4C(=O)C5C6C=CC(C6)C5C4=O)cc3s2)cc1 (centres undefined) | 16
N#Cc1ccc(C(=O)CSc2nnc(-c3ccc(C(F)(F)F)cn3)s2)cc1 | 7
Cc1noc2ncnc(Oc3cc(Cl)ccc3Cl)c12 | -3
CS(=O)(=O)c1cccc(NC(=O)c2ccc(Cl)c(Cl)c2)c1 | 17
NC(=O)COC(=O)c1ccc(-c2ccccc2)cc1 | 7
CCn1ncc(CN2CCN(Cc3ccc(OC)c(C)c3C)C(CCO)C2)c1C (centres undefined) | 3
CCN1CCN(C(=O)c2ccccc2N(Cc2ccccc2)S(=O)(=O)c2ccc(OC)cc2)CC1 | 29
S=c1[nH]nc(-c2cc(-c3ccccc3)n[nH]2)n1/N=C/c1ccc(Cl)c(Cl)c1 | 16
CCC(c1nnc(SCC(=O)Nc2ccc(S(N)(=O)=O)cc2)n1Cc1ccccc1)N(C)C (centres undefined) | -1
Cn1c(-c2ccc(F)cc2)cnc1SCC(=O)N1CCCc2ccccc21 | 17
Cc1ccc(C(=O)Nc2ccc(C(F)(F)F)n(C)c2=O)cc1 | -5
Cc1cccc(C)c1OCC(=O)N/N=C/c1ccncc1 | 19
O=C(CSCc1ccc(Cl)cc1)Nc1ccc2c(c1)OCO2 | 14
C/C(N)=C(/C#N)C(=O)CSc1nc2ccccc2c(=O)n1Cc1ccc(C)cc1 | 9
Cc1cc(C(=O)NNC(=O)CCC2CCCCC2)c(C)o1 | 5
CCc1sc(C(=O)N2CCc3ccccc32)cc1C | 19
COCCN1Cc2cccc(C(=O)Nc3cccc(-c4nc5ccccc5[nH]4)c3)c2C1=O | -3
CN(C1=C(N2CCOCC2)C(=O)c2ccccc2C1=O)c1ccccc1 | 14
Nc1[nH]nc2ncc3cc4ccccc4nc3c12 | 14
O=C1CCC(=O)N1c1ccc(NCCc2cccc(F)c2)c([N+](=O)[O-])c1 | 15
COc1ccc(C(=O)N(C)C2CCN(C)CC2)cc1S(=O)(=O)Nc1cc(Cl)ccc1Cl | 14
O=C1CCCC(=O)N1c1ccc(N2CCN(c3ccc([N+](=O)[O-])cc3)CC2)c([N+](=O)[O-])c1 | 6
Nc1cc(C(F)(F)F)ccc1N1CCOCC1 | 18
COC(=O)CSc1ccc(S(=O)(=O)N2CCCCCC2)cc1[N+](=O)[O-] | 18
Clc1ccccc1CSc1nncn1-c1cccnc1 | 5
CCOC(=O)N1CCN(C(=O)c2cc(OCC)c(OCC)c(OCC)c2)CC1 | 6
C#CCOCCOCCOCCNc1nc(N2CCN(C(=O)[C@H]([C@@H](C)CC)n3cc([C@@H](N)CO)nn3)CC2)nc(N2CCN(C(=O)[C@H](Cc3ccc(O)cc3)n3cc([C@@H](N)CC(C)C)nn3)CC2)n1 | 17
Cc1nn(-c2ccccc2)c(NC(=O)c2cccs2)c(-c2ccccc2Cl)c1=O | 17
COc1ccc(-n2c(O)c(C=NCC(c3ccco3)N3CCCC3)c3ccccc3c2=O)cc1OC (centres undefined) | -1
CS(=O)(=O)c1ccc(C(=O)NCCN2C(=O)S/C(=C\c3cccnc3)C2=O)cc1[N+](=O)[O-] | 6
COc1nccnc1NS(=O)(=O)c1ccc(N=Cc2c(C)[nH]n(-c3ccc(Cl)cc3)c2=O)cc1 | 20
COc1ccc(CC(=O)N2N=C(C)CC2(O)c2cccnc2)cc1OC (centres undefined) | 20
Continued:
SMILES | Biofilm kill mix
COc1ccc(C(=O)NCCOc2cccc(OC)c2)cc1 | 9
Cc1cc([N+](=O)[O-])cc2c1NC(=O)C2(O)N1CCOCC1 (centres undefined) | 12
Cn1c(=O)oc2cc(S(=O)(=O)Nc3ccccc3)ccc21 | 29
C/C(CCC(C)C)=N\NC(=O)COc1ccccc1-c1ccccc1 | 20
CCCCC1CCCC12NC(=O)NC2=O (centres undefined) | 21
O=Cc1[nH]c2ccccc2c1N(C(=O)CCl)c1ccc([N+](=O)[O-])cc1 | 1
O=C1CC(Sc2ccc(Cl)cc2)C(=O)N1Cc1ccncc1 (centres undefined) | 12
O=C1COc2ccc(C(=O)CSc3ccccc3C(=O)O)cc2N1 | 8
COc1ccc(/C=C/C(=O)NC(=S)NNC(=O)c2ccco2)cc1OC | 23
N#CC(C#N)=Cc1ccc(NC(=O)c2ccc(Br)cc2)cc1 | 4
CO/N=C\CC(=O)Nc1ccc(Cl)cc1Cl | -1
Cn1c(/C=C/c2ccccc2)nc2ccccc21 | 10
C=CCN=C1S/C(=C\c2ccc(N(C)C)cc2)C(=O)N1CC=C | 12
O=[N+]([O-])c1cccc(N/N=C/c2cccc(O)c2O)c1 | 5
Nc1c(C(=O)c2ccccc2)oc2ccc([N+](=O)[O-])cc12 | 14
c1ccc(-c2ccccc2-n2cnnn2)cc1 | 7
O=C(Cn1c2[n+](c3ccccc31)CC(O)CS2)c1ccccc1 (centres undefined) | 29
N#C/C=C1\Sc2ccccc2C(=O)N1CC(=O)N1CCN(S(=O)(=O)c2ccccc2)CC1 | 6
O=C(O)c1ccccc1N/N=C/c1c(Sc2nnnn2-c2ccccc2)nc2ccccn2c1=O | 29
COc1ccc(CC(=O)OCC(=O)Nc2ccc3c(c2)OCO3)cc1OC | 17
O=C(C(Cl)Cl)N1CCN(c2ccccn2)CC1 | 39
O=C1N(c2ccc(Cl)cc2)C(c2ccccc2)N2CCCN12 (centres undefined) | 7
COC(=O)c1cc(-c2ccc(OC)cc2)n[nH]1 | 11
NC(=O)C1(C(N)=O)OC1c1ccccc1 (centres undefined) | 31
CCC(C)[C@H](NC(=O)NCc1ccc(F)cc1)C(=O)O (some centres undefined) | 9
COC(=O)c1oc2ccccc2c1NC(=O)c1ccccc1O | 6
CC(=O)Nc1ccc(/C=N/N2CCCCC2)cc1 | 9
COc1cc(CNCCN2CCOCC2)ccc1OCc1c(Cl)cccc1Cl | 12
O=C(Nc1ccc2c(c1)OCO2)c1ccc2c(c1)OCO2 | 19
COc1ccc2cc(/C=N/NC(=O)c3ccc(CN(c4cccc(Cl)c4Cl)S(C)(=O)=O)cc3)c(Cl)nc2c1 | 7
COc1ccc(C(=O)N/N=C(\Cc2ncc[nH]2)c2ccccc2)cc1 | 22
O=C(CNC(=O)c1cccc(F)c1)N/N=C/c1ccc([N+](=O)[O-])s1 | 14
N#CC(C#N)=C1C=CC=CN1/C(=C\c1ccccc1Cl)C(=O)c1ccccc1 | 23
CCc1nc2ccccc2n1CC(=O)Nc1cc(C)on1 | 11
OCC1OC(n2cnc3ccccc32)CC1O (centres undefined) | 18
O=C(CC(c1ccccc1)c1ccco1)N1CCCCC1 (centres undefined) | 12
O=C1OCC2=C1C(c1ccccc1)CC(=O)N2c1ccc(F)cc1 (centres undefined) | 9
OC[C@H]1O[C@@H](n2cnc3c(NC4CCCC4)ncnc32)[C@H](O)[C@@H]1O | 15
O=C1CSC(c2cccc([N+](=O)[O-])c2)N1CCN1CCCCC1 (centres undefined) | 8
Cc1cc(NC(=O)COC(=O)C2CCC2)no1 | 6
Cc1cc(Oc2ccc(Cl)cc2)nc(-c2ccccn2)n1 | 11
O=C(CSc1nc2ccc([N+](=O)[O-])cc2[nH]1)c1ccc(Cl)cc1 | 9
Cc1ccc(NC(=O)c2cc3c(=O)oc4ccccc4c3s2)nc1 | 8
O=C(N/N=C/c1ccco1)c1ccc(C(=O)N/N=C/c2ccco2)o1 | 11
CCCCNC(=S)NC(C)(C)CO | 25
COc1cc(C2C(C#N)=C(N)Oc3cc(C)oc(=O)c32)cc(OC)c1OC (centres undefined) | 12
Fc1ccccc1CCNc1c2c(nc3ncnn13)CCCC2 | 11
COC(c1ccccc1)c1nnc(CCC(=O)N(C)C(C2CC2)C2CC2)o1 (centres undefined) | 39
CCC(C)NC(=O)C(=O)NCc1ccccn1 (centres undefined) | 15
CCCCN1C(=O)C(O)(CC(=O)c2ccccn2)c2ccccc21 (centres undefined) | 15
Cc1cccc(NC(=O)c2cc3cc([N+](=O)[O-])ccc3s2)n1 | 16
N#Cc1c(CSCC(=O)O)cc(=O)n2c1[nH]c1ccccc12 | 19
O=C(/C=C/c1ccc(S(=O)(=O)N2CCOCC2)cc1)NC(=S)Nc1ccc(N2CCOCC2)cc1 | 1
Cc1ccc(-c2nn3c(C)nnc3s2)cc1NC(=O)c1cccnc1 | 11
O=C(CSc1nc2ccccc2c(=O)[nH]1)c1ccc(O)cc1O | 6
CCCCCc1ccc(C(=O)CCCC)c(=S)[nH]1 | 20
Cc1ccccc1NC(=S)N(CCN1CCOCC1)Cc1ccccc1F | -4
NC(=NCCc1ccccc1)NS(=O)(=O)c1ccc2ccccc2c1 | -1
COCC(C)n1c(SCC(=O)N2CCc3ccccc3C2)nc2ccccc2c1=O (centres undefined) | 9
CC(=O)c1cc(CN2CCC(N3CCC(C(=O)NC(C)C)CC3)CC2)cs1 | 1
More results:
SMILES | Biofilm kill mix
Cc1sc2nc(-c3ccccc3)[nH]c(=O)c2c1-c1ccccc1 | 14
CC1(C)SC2C(NC(=O)COc3ccccc3)C(=O)N2C1C(=O)O (centres undefined) | 17
CCC(=O)c1ccc(N2CCN(C(=O)c3ccccc3F)CC2)c(F)c1 | 11
Cc1c(NC(=S)NNC(=O)CCC(=O)O)c(=O)n(-c2ccccc2)n1C | 12
Cc1cc(C)n(-c2ccc(Cl)c(C(=O)NCc3ccccc3)n2)n1 | 16
Cc1cc(C(=O)CN2C(=O)NC(C)(CC(C)C)C2=O)c(C)n1-c1ccc2c(c1)OCO2 (centres undefined) | 22

Another view of part of the listing above:
structure,Biofilm kill mix
O=C(N/N=C/c1ccco1)c1ccc(C(=O)N/N=C/c2ccco2)o1,11
CCCCNC(=S)NC(C)(C)CO,25
COc1cc(C2C(C#N)=C(N)Oc3cc(C)oc(=O)c32)cc(OC)c1OC (centres undefined),12
Fc1ccccc1CCNc1c2c(nc3ncnn13)CCCC2,11
COC(c1ccccc1)c1nnc(CCC(=O)N(C)C(C2CC2)C2CC2)o1 (centres undefined),39
CCC(C)NC(=O)C(=O)NCc1ccccn1 (centres undefined),15
CCCCN1C(=O)C(O)(CC(=O)c2ccccn2)c2ccccc21 (centres undefined),15
Cc1cccc(NC(=O)c2cc3cc([N+](=O)[O-])ccc3s2)n1,16
N#Cc1c(CSCC(=O)O)cc(=O)n2c1[nH]c1ccccc12,19
O=C(/C=C/c1ccc(S(=O)(=O)N2CCOCC2)cc1)NC(=S)Nc1ccc(N2CCOCC2)cc1,1
Cc1ccc(-c2nn3c(C)nnc3s2)cc1NC(=O)c1cccnc1,11
O=C(CSc1nc2ccccc2c(=O)[nH]1)c1ccc(O)cc1O,6
CCCCCc1ccc(C(=O)CCCC)c(=S)[nH]1,20
Cc1ccccc1NC(=S)N(CCN1CCOCC1)Cc1ccccc1F,-4
NC(=NCCc1ccccc1)NS(=O)(=O)c1ccc2ccccc2c1,-1
COCC(C)n1c(SCC(=O)N2CCc3ccccc3C2)nc2ccccc2c1=O (centres undefined),9
CC(=O)c1cc(CN2CCC(N3CCC(C(=O)NC(C)C)CC3)CC2)cs1,1
Cc1sc2nc(-c3ccccc3)[nH]c(=O)c2c1-c1ccccc1,14
CC1(C)SC2C(NC(=O)COc3ccccc3)C(=O)N2C1C(=O)O (centres undefined),17
CCC(=O)c1ccc(N2CCN(C(=O)c3ccccc3F)CC2)c(F)c1,11

Screening data (PubChem)

A portion of the library, so the mix of outcomes need not match the whole.
